# Screening results from PubChem BioAssay.
# D2 agonist = agonists of human D2 dopamine receptor (beta-arrestin) | activation, % (concentration not given with the values) | DiscoveRx PathHunter D2 beta-arrestin, luminescence, 90 min; 100% = 57 uM dopamine signal | 360,000 compounds, 0.084% hits | P14416; in the data active = activation above about 40%; inconclusive = about 15% to 40%; inactive = below about 15%; note: the text of the record calls up to 30% inactive
#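 DiscoveRx PathHunter D2 beta-arrestin cells (2,100/well) attached overnight, then compound-stimulated 90 min at 37 C in HBSS/10 mM HEPES/0.1% Tween-20 buffer; beta-galactosidase complementation read by luminescence after 1 h at ambient temperature. Dopamine 57 uM final (EC100) as control.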
# CtBP-E1A inh = CtBP/E1A binding inhibition; AlphaScreen GST-E1A/His-CtBP binding, 1536-well; active compounds read low; control for the full effect not named in the record; activity change, % (test concentration not listed); 340,000 compounds, 0.49% hits; AID 651724; in the data active means activity change below about -65%; inconclusive means about -30% to -65%; inactive means above about -30%; note: % is set by controls: 0 for no effect and ±100 for the full control effect
#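 GST-E1A and His-tagged CtBP (125 nM each as 5X stock) were preincubated with pin-transferred compound for 2 h at 37 °C in the dark, then glutathione donor and nickel acceptor beads were added for 1 h before AlphaScreen reading.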
# Six1-Eya2 blk = inhibitors of human Six1/Eya2 interaction | AlphaScreen GST-Six1/His-Eya2 binding, biochemical; active compounds read low; control for the full effect not named in the record | activity change, % (no concentration beside the values) | 360,000 compounds, 0.56% hits | Q15475+O00167; in the data active = activity change below about -65%; inconclusive = about -30% to -65%; inactive = above about -30%; note: % is set by controls: 0 for no effect and ±100 for the full control effect
# Target sequence (O00167 whole entry, looked up): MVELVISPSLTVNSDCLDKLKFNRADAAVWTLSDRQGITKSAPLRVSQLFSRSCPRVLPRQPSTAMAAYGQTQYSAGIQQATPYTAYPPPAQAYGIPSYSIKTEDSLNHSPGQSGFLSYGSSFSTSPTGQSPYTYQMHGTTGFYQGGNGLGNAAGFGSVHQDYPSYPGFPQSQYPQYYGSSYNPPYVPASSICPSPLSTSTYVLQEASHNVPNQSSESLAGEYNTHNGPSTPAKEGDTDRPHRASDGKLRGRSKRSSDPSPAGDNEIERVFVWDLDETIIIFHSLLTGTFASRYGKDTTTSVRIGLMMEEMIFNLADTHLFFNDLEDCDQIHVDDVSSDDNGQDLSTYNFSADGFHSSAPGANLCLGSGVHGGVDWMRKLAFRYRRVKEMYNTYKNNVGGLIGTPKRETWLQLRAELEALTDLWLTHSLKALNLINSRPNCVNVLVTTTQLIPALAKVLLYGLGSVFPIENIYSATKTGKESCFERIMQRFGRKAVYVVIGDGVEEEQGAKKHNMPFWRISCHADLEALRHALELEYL
# Target sequence (Q15475 whole entry, looked up): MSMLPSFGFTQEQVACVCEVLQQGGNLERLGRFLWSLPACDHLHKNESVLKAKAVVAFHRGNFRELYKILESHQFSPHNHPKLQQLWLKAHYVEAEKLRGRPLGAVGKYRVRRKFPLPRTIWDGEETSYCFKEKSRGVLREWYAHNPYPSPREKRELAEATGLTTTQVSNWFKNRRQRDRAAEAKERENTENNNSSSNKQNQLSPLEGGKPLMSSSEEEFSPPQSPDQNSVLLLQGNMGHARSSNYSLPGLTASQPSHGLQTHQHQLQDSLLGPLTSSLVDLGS
#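 GST-Six1 + His-Eya2 (5X stock: 250/500 nM); Tris pH 8.0, 300 mM NaCl, 0.05% BSA, 0.02% Tween 20; GSH donor/Ni acceptor beads; 1 h 37 °C dark; AlphaScreen readout.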
# TRPML1 ag = agonists of human TRPML1 channel; Q9GZU1; TRPML1-expressing cells, Ca2+ dye fluorescence, FDSS; host cell line not named in the record; reference of the full effect not given here; activation, % (concentration not given with the values); 410,000 compounds, 0.12% hits; in the data active = activation above about 50%; inconclusive = about 30% to 50%; inactive = below about 30%; note: 0% is about no effect; the text of the record puts the active cut at 80%
#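 Cells: TRPML1-DL, 1X Tet inducer, ~16 h at 37 degrees C/5% CO2. Dye: ABD Ca8 no-wash + quencher, 45-90 min RT. Read: 10 s baseline, compound add, 110 s agonist phase; 54-4 EC80 (4uM final), 110 s antagonist phase.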
# D2 potentiator = positive allosteric modulators of human D2 dopamine receptor | P14416 | DiscoveRx D2 beta-arrestin cells, luminescence, 90 min; 100% = 57 uM dopamine signal | potentiation, % (test concentration not listed) | 360,000 compounds, 0.23% hits | AID 624464; active = potentiation of 50% or more; inconclusive = 30% to 50%; inactive = 30% or less;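 note: compound concentration not given in the record; tested on top of an EC20 dose of dopamine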
#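 D2 cells co-treated with compound plus 50 nM dopamine (EC20) for 90 min at 37 deg C to detect potentiation. Beta-arrestin recruitment was read as enzyme-fragment luminescence after 1 h at ambient temperature. Full response was set by 57 uM dopamine.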
# PINK1 expr mod = changes PINK1 expression | Potency, µM (series often up to 76.6 µM), for inactives: top-dose activation (PINK1 increase), usual class: activators | PINK1 immunofluorescence, high-content cytometry, 24 h | 410,000 compounds, 0.2% hits; active = well fitted activation curve with a large enough effect; inconclusive = small, poorly fitted or top-dose-only effect; inactive = flat fitted curve, though single readings scatter; cell line not stated here;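 note: potency is the fitted concentration of half-maximal effect; % of control where 0% means no effect; nearly all actives have a fitted effect of over 65% in size; a mitochondrial uncoupler was the plate control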
#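 Readout is PINK1 immunofluorescence, quantified alongside mitochondrial, cell and nuclear markers by laser-scanning microplate cytometry. Cells from a stable line were exposed to compound titrations (5 concentrations) for 24 hours, with CCCP controls.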
# * = called active by the depositor; ? = inconclusive; nt = not tested or not shown; & = joins results of further samples; [ ] = another dose, or the depositor's remark.
structure	D2 agonist	CtBP-E1A inh	Six1-Eya2 blk	TRPML1 ag	D2 potentiator	PINK1 expr mod
CCCCN1C(=O)C(CC(=O)NCCCN(C)C)CC(C(=O)N(C)C)=C1C (configuration not stated)	0.0	2	-1	nt	nt	0.5%
Cc1cccc(N2CCN(Cc3nc(-c4cccc(Oc5ccccc5)c4)oc3C)CC2)n1	3.1	nt	-24	0.2	-4	9.5%
CC(=O)Nc1ncnc2c1c(-c1ccc(Cl)cc1)nn2C(C)(C)C	-2.6	4	3	-0.6	-9	2.3%
Cn1cccc1C(=O)OCC(=O)N1CCN(c2ccccc2)CC1	-1.9	1	-7	-0.9	-6	-0.1%
Cn1c(CCNC(=O)c2ccc(Cl)c(Cl)c2)nnc1SCc1ccc(Cl)c(Cl)c1	-2.5	4	7	1.5	-6	13%[38.3 µM]
COc1ccc(NC(=O)COc2ncnc3ccccc23)cc1S(=O)(=O)N1CCOCC1	-7.1	-6	0	-0.1	0	-0.7%
Cc1ccc(NS(=O)(=O)c2cccc([N+](=O)[O-])c2)nc1	9.7	nt	0	-0.2	1	-0.7%
O=C(NCCc1ccccc1)Nc1ccc2c(c1)OCO2	-0.8	nt	-11	1.8	-6	2.4%
C=CC(=O)Nc1cccc(Oc2ncnc3[nH]cc(-c4cnc5ccccc5c4)c23)c1	-4.4	-8	6	0.6	5	-1.5%
COc1ccc(/C=C/C2=NN(Cc3ccccc3)C(=O)CC2)cc1	4.2	0	-1	0.3	6	-2.8%
COc1cccc(C2SCC(=O)N2c2ccc(Cl)cc2)c1OC (configuration not stated)	-5.1	-2	16	-0.1	0	0.0%
O=C(Cc1csc(-c2cccc(Cl)c2)n1)Nc1cccc(S(=O)(=O)NC2=NCCC2)c1	-0.8	-2	-24	2.7	-2	-2.4%
CC1CCCC(NC(=O)COC(=O)c2ccccc2[N+](=O)[O-])C1C (configuration not stated)	6.8	-8	4	1.2	5	-0.6%
CCCc1cc2c(OC(=O)CC)c(-c3ccc(C(=O)OCC)o3)c(=O)oc2cc1OC	-1.1	4	-4	3.0	1	0.0%
O=C(Nc1ccccc1Cc1ccccc1)C1CC(=O)N(c2ccc3c(c2)OCCO3)C1 (configuration not stated)	0.4	-2	0	2.5	-9	-4.5%
COC(=O)CNC(=O)C(CCSC)NC(C)=O (configuration not stated)	2.4	0	16	-0.9	-1	2.4%
Cc1ccc(C(=O)N2CC(=O)Nc3ccc(F)cc3C2c2ccc(F)cc2)cc1[N+](=O)[O-] (configuration not stated)	0.3	-22	?	0.4	11	1.5%
CN(CCOc1ccc(Cl)cc1)CC(=O)Nc1ccc(OC(F)(F)F)cc1	6.0	6	7	0.8	-5	16%
Cc1ccc(NS(=O)(=O)c2c(C)nc3sccn3c2=O)c(C)c1	-1.9	8	2	0.1	-2	-0.8%
CC(C)CS(=O)(=O)C1=NSC2=NC(=O)/C(=C\c3ccc(OC(=O)c4ccco4)cc3)C(=N)N21	-1.3	-6	-17	-0.7	-8	0.4%
Cc1nnc(SCC(=O)Nc2ccc(S(=O)(=O)N3CCCCC3)cc2)s1	0.1	2	7	-0.5	-3	-2.6%
CC(C)C(=O)NC(=S)Nc1ccc(S(=O)(=O)N2CCN(C)CC2)cc1	-2.6	5	-5	0.3	-10	-0.2%
Cc1ccc(-c2nc(CCNC(=O)c3ccco3)cs2)cc1	2.2	0	5	-0.1	13	-2.1%
CCC(CC)n1[nH]c(=O)cc1N	-1.8	-1	1	1.3	-20	-2.5%
COc1ccc(-c2cc(C(F)(F)F)nc(S(=O)(=O)CCCC(=O)Nc3cccc(O)c3)n2)cc1OC	1.8	13	14	-0.3&2.2	-1	-2.0%&0.3%
Cc1nc(CSc2nnc(C)s2)cs1	-0.8	1	30	0.2	-15	1.4%
Cc1ccc(C(=O)OCC(=O)NCc2ccc3c(c2)OCO3)s1	1.0	7	7	-1.1	6	-1.4%
O=C(NCC(c1ccco1)N1CCCC1)c1ccc(S(=O)(=O)Nc2ccccc2F)cc1 (configuration not stated)	-2.1	-3	-4	-0.7	-11	0.0%
C/C(=C\c1cccs1)C(=O)c1c(C)cc(C)[nH]c1=O	-2.3	9	2	nt	1	-0.6%
CCCOc1ccc(C(=O)Nc2ccc(N(C)C)cc2)cc1	4.8	-5	-12	-0.5	3	2.8%[38.3 µM]

# 3 compounds already listed, ordered by molar mass, falling:
structure	D2 agonist	CtBP-E1A inh	Six1-Eya2 blk	TRPML1 ag	D2 potentiator	PINK1 expr mod
O=C(Cc1csc(-c2cccc(Cl)c2)n1)Nc1cccc(S(=O)(=O)NC2=NCCC2)c1	-0.8	-2	-24	2.7	-2	-2.4%
COc1cccc(C2SCC(=O)N2c2ccc(Cl)cc2)c1OC (configuration not stated)	-5.1	-2	16	-0.1	0	0.0%
Cc1nc(CSc2nnc(C)s2)cs1	-0.8	1	30	0.2	-15	1.4%

# Next structures follow.
structure	D2 agonist	CtBP-E1A inh	Six1-Eya2 blk	TRPML1 ag	D2 potentiator	PINK1 expr mod
COc1ccc(CCNC(=O)c2ccc3c(SCC(=O)O)c4c(nc3c2)CCCC4)cc1OC	-7.5	-18	-17	0.7	-5	2.1%
Cn1cnnc1SCC(=O)N1CCC(Cc2ccccc2)CC1	-0.1	6	-1	-1.0	15	-0.8%
O=C(O)CC(Cc1ccc(Cl)cc1)C(=O)NCc1ccccc1 (configuration not stated)	0.3	0	26	0.7	4	1.3%
Cc1cc(C(=O)N/N=C/c2ccc(O)c([N+](=O)[O-])c2)c(C)n1-c1ccc(F)cc1	-5.7	6	?	0.2	-27	10%
CC(=O)N1SC(N)=NC1c1ccccc1 (configuration not stated)	-0.5	1	2	-0.9	-1	0.5%
C=C1CCN([C@@H](CC(C)C)C(=O)NCCCc2ccccc2)S(=O)(=O)c2ccccc21	-2.3	11	3	?	-7	-0.6%
O=C(CN1C(=O)CSc2ccc(S(=O)(=O)N3CCOCC3)cc21)NCc1ccc(Cl)cc1	1.1	1	6	1.7	-11	2.3%
Cc1ccc(Nc2ncnc3c2cnn3C)cc1	-5.1	nt	5	0.3	-8	-1.7%
O=C(COCc1nc2ccccc2c(=O)[nH]1)NC1CCCC1	-3.4	-2	-5	2.4	-9	-2.8%[38.3 µM]
CCOc1ccc(S(=O)(=O)Nc2cccc(C(=O)NCC(C)(C)N3CCOCC3)c2)cc1	-3.0	-7	3	1.3	-69	-2.9%
COc1ccc(C2Nc3ccccc3C(=O)N2Cc2ccccc2)cc1COc1ccccn1 (configuration not stated)	-1.2	-2	2	0.0	-6	-1.5%[38.3 µM]
COc1ccccc1OCC(=O)N1CCCC(Nc2ccc(F)c(F)c2)C1 (configuration not stated)	0.4	-2	-9	0.6	-16	0.0%
S=c1[nH]cnc2scc(-c3ccccc3)c12	-7.1	1	-4	0.2	-37	2.8%
Cc1cc(C)n(Cc2cc(C(=O)O)c3ccccc3n2)n1	0.3	6	14	0.8	2	7.8%
CCOC(=O)c1ccc(N=C2S/C(=C\c3cc(C)n(-c4cccnc4)c3C)C(=O)N2C)cc1	0.7	9	-3	-0.4	9	3.3%
Cc1ccc(C(=O)/C=C/c2ccccc2)o1	-5.3	13	-3	2.8	-16	-3.8%
CN(C(=S)Nc1ccc(SC(F)F)cc1)C(c1ccccc1)c1ccccc1	1.6	nt	0	1.1	0	?
ClCC1NCC(c2ccccc2Cl)c2c1[nH]c1ccccc21 (configuration not stated)	0.3	0	-18	1.9	2	16%
O=C(CSc1ccsc1[N+](=O)[O-])NCc1ccccc1	-4.0	0	4	-0.7	-11	-0.8%
COc1ccc(Cl)cc1NC(=O)CN1CCCC1	-14	15	-2	2.1	-15	-1.0%
COC(=O)c1cc(OC)c(OC)cc1NC(=O)C1CCC(=O)N1S(=O)(=O)c1ccc(C)cc1 (configuration not stated)	-3.2	-9	-2	1.1	-9	0.5%
CN(C)c1cccc(N=C2C=C(N3CCOCC3)CC(C)(C)C2)c1	-0.7	1	0	-0.1	-22	-0.5%
COC(=O)c1nnn(-c2nonc2N)c1CSc1nnc(C)s1	2.7	1	3	-0.1	1	-0.5%
COCCCn1c(C)nnc1SCC(=O)Nc1cccc(C)c1	-2.8	10	0	0.0	-3	2.5%
CC(C)C(=O)N1CCN(c2ccc(NC(=O)c3ccc([N+](=O)[O-])o3)cc2)CC1	5.4	0	0	0.0	9	-1.1%
CCn1nc(NC(=O)CC(C)C)c2cc3cccc(C)c3nc21	-4.2	16	17	-0.3	0	2.8%
COCCN(CCOC)C(=O)c1ccc(NS(=O)(=O)c2ccc3c(c2)OCCO3)cc1	-2.0	0	5	-0.3	-4	0.8%
COc1ccc(C(=O)NCCC2=CCCCC2)cc1[N+](=O)[O-]	-2.5	9	-16	0.3	-13	3.3%
FC(F)(F)c1ccc(N2CCOCC2)c(NC2=NCCCCC2)c1	1.8	2	-1	-0.8	-2	-0.6%
CCCCn1c(N)c(N(CC(C)C)C(=O)CN2C(=O)NC3(CC(C)CC(C)(C)C3)C2=O)c(=O)[nH]c1=O (configuration not stated)	-5.1	12	0	0.3	1	0.1%

# 7 neighbouring entries already listed, for reference:
structure	D2 agonist	CtBP-E1A inh	Six1-Eya2 blk	TRPML1 ag	D2 potentiator	PINK1 expr mod
COc1ccc(CCNC(=O)c2ccc3c(SCC(=O)O)c4c(nc3c2)CCCC4)cc1OC	-7.5	-18	-17	0.7	-5	2.1%
Cn1cnnc1SCC(=O)N1CCC(Cc2ccccc2)CC1	-0.1	6	-1	-1.0	15	-0.8%
O=C(O)CC(Cc1ccc(Cl)cc1)C(=O)NCc1ccccc1 (configuration not stated)	0.3	0	26	0.7	4	1.3%
Cc1cc(C(=O)N/N=C/c2ccc(O)c([N+](=O)[O-])c2)c(C)n1-c1ccc(F)cc1	-5.7	6	?	0.2	-27	10%
CC(=O)N1SC(N)=NC1c1ccccc1 (configuration not stated)	-0.5	1	2	-0.9	-1	0.5%
C=C1CCN([C@@H](CC(C)C)C(=O)NCCCc2ccccc2)S(=O)(=O)c2ccccc21	-2.3	11	3	?	-7	-0.6%
O=C(CN1C(=O)CSc2ccc(S(=O)(=O)N3CCOCC3)cc21)NCc1ccc(Cl)cc1	1.1	1	6	1.7	-11	2.3%

# Next section
structure	D2 agonist	CtBP-E1A inh	Six1-Eya2 blk	TRPML1 ag	D2 potentiator	PINK1 expr mod
O=C(Nc1nc(-c2ccccc2)ns1)c1cccs1	-1.0	2	2	-0.5	-11	-0.1%[38.3 µM]
COc1cccc(NC(=O)CSc2nnc(Cc3ccc(OC)c(OC)c3)o2)c1	1.4	-10	-18	-0.1	5	2.6%
COC(=O)C1CCN(C(=O)/C=C/c2ccccc2)CC1	-4.1	-6	-3	-0.2	-8	0.1%
Cc1ccc(NC(=S)NC(=O)/C=C/c2ccco2)c(O)c1	-5.2	-12	-7	0.8	-10	-2.5%
CCC(C)(C)NC(=O)C(c1ccc(OC)cc1)N(Cc1ccco1)C(=O)CCC(=O)Nc1cc(C)on1 (configuration not stated)	-1.6	0	3	0.5	-12	1.2%
CC(C)(C)c1ccc(C(=O)N/C(=C\c2ccco2)C(=O)O)cc1	-1.6	9	2	0.1	-6	-1.7%
